Source: PubChem BioAssay (several laboratories)
PKD1 inh: inhibitors of human PKD1 kinase, biochemical, fluorescence polarization. Serine/threonine-protein kinase D1 (Homo sapiens), Q15139. PKD1 kinase fluorescence polarization assay. inhibition, %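 (about 10 µM by stock and volumes)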. actives 0.056% (n = 200,000);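 active = inhibition of 50% or more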;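 note: controls were vehicle for no effect and a reference inhibitor for full effect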
Target sequence (Q15139 whole entry, looked up): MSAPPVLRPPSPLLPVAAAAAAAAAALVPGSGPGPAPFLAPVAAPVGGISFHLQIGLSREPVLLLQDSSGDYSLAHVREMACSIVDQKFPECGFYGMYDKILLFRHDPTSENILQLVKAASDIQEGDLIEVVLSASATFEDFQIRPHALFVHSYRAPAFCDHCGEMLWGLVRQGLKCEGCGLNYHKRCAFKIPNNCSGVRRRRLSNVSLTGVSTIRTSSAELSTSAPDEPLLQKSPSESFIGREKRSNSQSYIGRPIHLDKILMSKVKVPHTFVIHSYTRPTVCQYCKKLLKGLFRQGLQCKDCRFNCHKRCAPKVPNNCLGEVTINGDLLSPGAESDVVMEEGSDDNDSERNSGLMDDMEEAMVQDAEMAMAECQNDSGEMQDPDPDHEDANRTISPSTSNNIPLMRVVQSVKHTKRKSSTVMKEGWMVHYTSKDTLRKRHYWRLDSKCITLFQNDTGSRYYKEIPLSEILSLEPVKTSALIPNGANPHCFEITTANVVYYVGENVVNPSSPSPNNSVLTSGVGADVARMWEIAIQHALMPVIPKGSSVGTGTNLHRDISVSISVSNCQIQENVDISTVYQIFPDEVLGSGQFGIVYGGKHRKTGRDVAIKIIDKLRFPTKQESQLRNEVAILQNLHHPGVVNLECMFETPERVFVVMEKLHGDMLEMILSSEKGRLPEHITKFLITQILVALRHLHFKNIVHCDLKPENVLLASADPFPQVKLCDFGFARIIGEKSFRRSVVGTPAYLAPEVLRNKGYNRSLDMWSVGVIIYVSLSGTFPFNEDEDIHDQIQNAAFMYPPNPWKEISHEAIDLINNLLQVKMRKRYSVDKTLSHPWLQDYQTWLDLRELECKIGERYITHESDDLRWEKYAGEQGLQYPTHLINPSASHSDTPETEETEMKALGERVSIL
HSV replic up: enhancers of HSV replication in host cells, fold increase, host cell viability; HSV replication augmentation in cells; maximum fold increase; actives 0.005% (n = 220,000); AID 1956, 2009;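 active = peak rise of 1.5-fold or more in the series; inconclusive = self-fluorescent or not available for retest; tested in PC3 cells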;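 note: first round at 10 µM; read as green reporter fluorescence; hits show the peak of a series up to 25 µM; 1 = signal of infected wells without compound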
RGS16-Gao: modulators of RGS16 binding to Galphao, primary screen, biochemical, human proteins, multiplexed bead flow cytometry; bead-based flow cytometry RGS16-Galphao binding, fluorescence; actives lie on both sides; actives 0.38% (n = 220,000); Regulator of G-protein signaling 16 (Homo sapiens) + Guanine nucleotide-binding protein …; binding response (% of control), % at 10 µM;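 active = below 25% or above 175%, edge rows of some plates excepted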;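 note: Galphao activated by GDP with aluminum fluoride before binding; 100% = wells without compound and 0% = beads without RGS; some results beyond the cut were filed as inactive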
Insulin prom inh: inhibitors of insulin promoter-driven GFP, primary screen, imaging, TRM-6 cells (human fetal islet line), eGFP reporter, cell count; reporter expression induced with tamoxifen; AID 1273, 2008; inhibition, % at 2 µM; actives 0.9% (n = 130,000);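 active = inhibition above the mean plus 3 SD, with well images judged a real hit on visual review, cut at about 60% in these data, passing the limit was not always enough; inconclusive = inhibition over the cutoff but images rejected on review; inactive = inhibition not above the cutoff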
GALR2 ag: GALR2 receptor agonists, primary screen, cell-based | activation, %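 (tested at 5 µM)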 | GALR2-expressing cells, agonist activation read-out | Galanin receptor type 2 (Homo sapiens), O43603 | actives 0.48% (n = 140,000) | AID 803, 2007;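 active = above mean plus 3 SD of all compounds, about 5% in these data, not always enough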;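 note: 0% = vehicle buffer wells and 100% = reference agonist at full effect; tested in CHO reporter cells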
Insulin prom inh cell count: further read-out of Insulin prom inh, marked with its call; normalized cell count, %; measured here: cell count, toxicity; reference of the scale not given here;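 cells exposed to compound for 48 h; stained nuclei by imaging scaled within each plate; lower means fewer cells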
HSV replic up primary fold: second read-out of HSV replic up, no call of its own (marks repeat the call); fold increase; compound at 10 µM; measured here: primary screen fold increase 10 uM; tested in PC3 cells;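 GFP signal in the first replicate; 1 = infected wells without compound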
Numbers without * were called inactive; i = inactive; ? = inconclusive; / = not tested or not shown.

SMILES	PKD1 inh	HSV replic up	HSV replic up primary fold	RGS16-Gao	Insulin prom inh	Insulin prom inh cell count	GALR2 ag
Cc1nc2ccccc2nc(C)c1=NOCc1ccc(C#N)cc1	-14	i	1	106	11	88	-1.2
O=C(Cc1cccs1)Nc1nc2c(s1)CCCC2	-4	i	0.8	98	42	134	0.3
CNC(=O)c1cccnc1Nc1cccc(C(F)(F)F)c1	-1	i	0.89	101	/	/	-0.7
CC(O)[C@H](NC(=O)C1(c2ccccc2)CCN(C(=O)OC(C)(C)C)CC1)C(=O)O (some centres not stated)	-6	i	0.99	105	/	/	-1.3
CC(C)N1C(=S)SC(C)(C)C1n1oc(=O)n(-c2ccc(Cl)c(Cl)c2)c1=O (configuration not stated)	-11	/	/	99	40	126	-1.5
COc1ccccc1/C=N/NC(=O)c1[nH]c(C)c(C(=O)N/N=C/c2ccccc2OC)c1C	-3	i	1.1	69	/	/	-1.3
COC(=O)C(NC(=O)Nc1ccccc1OC)C(C)C (configuration not stated)	1	i	0.8	100	/	/	-0.3
COc1ccccc1CNS(=O)(=O)c1ccc2[nH]cc(C(=O)O)c(=O)c2c1	7	i	1	104	-21	101	-0.8
Oc1c(C=Nc2cccnc2)sc2ccccc12	0	i	0.94	103	57	168	-0.3
CCCc1ccc(-c2ccc(F)c(N)c2)nc1	4	i	0.8	97	/	/	-3.2

4 of the compounds above, as labelled records.
Oc1c(C=Nc2cccnc2)sc2ccccc12
  PKD1 inh: 0
  HSV replic up: i
  HSV replic up primary fold: 0.94
  RGS16-Gao: 103
  Insulin prom inh: 57
  Insulin prom inh cell count: 168
  GALR2 ag: -0.3

COC(=O)C(NC(=O)Nc1ccccc1OC)C(C)C (configuration not stated)
  PKD1 inh: 1
  HSV replic up: i
  HSV replic up primary fold: 0.8
  RGS16-Gao: 100
  Insulin prom inh: /
  Insulin prom inh cell count: /
  GALR2 ag: -0.3

CC(C)N1C(=S)SC(C)(C)C1n1oc(=O)n(-c2ccc(Cl)c(Cl)c2)c1=O (configuration not stated)
  PKD1 inh: -11
  HSV replic up: /
  HSV replic up primary fold: /
  RGS16-Gao: 99
  Insulin prom inh: 40
  Insulin prom inh cell count: 126
  GALR2 ag: -1.5

COc1ccccc1/C=N/NC(=O)c1[nH]c(C)c(C(=O)N/N=C/c2ccccc2OC)c1C
  PKD1 inh: -3
  HSV replic up: i
  HSV replic up primary fold: 1.1
  RGS16-Gao: 69
  Insulin prom inh: /
  Insulin prom inh cell count: /
  GALR2 ag: -1.3

The listing picks up; the 2 compounds before the break are reprinted first.
SMILES	PKD1 inh	HSV replic up	HSV replic up primary fold	RGS16-Gao	Insulin prom inh	Insulin prom inh cell count	GALR2 ag
Oc1c(C=Nc2cccnc2)sc2ccccc12	0	i	0.94	103	57	168	-0.3
CCCc1ccc(-c2ccc(F)c(N)c2)nc1	4	i	0.8	97	/	/	-3.2
CC(C)(C)OC(=O)N1CCC(C(=O)N[C@H](Cc2ccccc2)C(=O)O)CC1	-6	i	1	100	-27	69	-1.4
CCOc1ccc2nc(SCC(=O)N3CCCc4ccccc43)sc2c1	-6	i	1	107	3	60	-1.1
CCN1CCc2c(C#N)c(NCc3ccccc3)nc(N(CC)CC)c2C1	0	i	0.92	101	/	/	-0.6
CC1CCCCN1CCNc1nc(=S)[nH]c2ccccc12 (configuration not stated)	-3	i	0.96	102	21	111	-0.5
CC1CCC(C(=O)NC(C(=O)N2CCC(N3CCCCC3)CC2)C(C)C)CC1 (configuration not stated)	9	i	0.71	101	0	171	-2.9
Cc1cc(NCCc2ccc(Cl)cc2)n2ncnc2n1	2	i	0.9	103	/	/	/
O=C(c1cccc2c1-c1ccccc1/C2=N/O)N1CCCCC1	8	i	0.79	105	-13	114	-1.8
Cc1[nH]c2ccccc2c1-c1nc(-c2ccc(Cl)cc2)nnc1-c1ccccc1	-2	i	1	101	-10	57	/
Brc1ccc2nc(-c3ccncc3)c(NC3CCCC3)n2c1	-7	i	0.96	103	/	/	/
Cc1cc(C)nc(N2CCCC(C(=O)Nc3nc4ccc(S(C)(=O)=O)cc4s3)C2)n1 (configuration not stated)	-8	i	0.97	104	22	146	-1.7
Cc1ccc(-c2nc(-c3cccnc3)sc2CC(=O)O)cc1	/	i	0.96	105	/	/	/
COC(=O)c1sc2nc(SCc3cccc(F)c3)n(N)c(=O)c2c1C	4	i	1.1	83	-32	93	-0.7
c1cc2c3c(cccc3c1)C(N1CCN(C3=Nc4cccc5cccc3c45)CC1)=N2	-8	/	/	/	7	148	-1.3
N#CC(C#N)=NNc1ccc(S(=O)(=O)N2CCCCC2)cc1	6	i	0.76	104	49	146	-0.5
CC(=O)Nc1ccc(S(=O)(=O)Nc2nc3ccc(C)cc3s2)cc1	9	i	0.85	103	26	116	-0.2
COCc1[nH]nc2c1C(c1ccccc1OC)C(C#N)=C(N)O2 (configuration not stated)	/	i	0.77	99	/	/	/
Cc1c(-c2ccccc2)[n+](=O)c2c(n1[O-])CCCC2	/	i	1.1	103	/	/	/
Fc1ccc(NC(=S)Nc2cccc(Cl)c2)cc1	8	i	1	95	29	95	-1.8
CCCC(=O)Nc1ccc2c(c1)nc(CCNC(=O)c1ccco1)n2C	/	i	1.1	101	/	/	/
CCOC(=O)c1c(CN(C)C)n(-c2ccc(C)cc2)c2cc(Br)c(O)cc12	5	i	0.8	99	54	132	-1.7
O=C(Nc1ccccc1N1CCOCC1)c1ccc(S(=O)(=O)NCc2ccco2)cc1	-7	i	0.91	102	-92	82	/
Cc1nc2nc[nH]n2c(=O)c1NS(=O)(=O)c1ccc([N+](=O)[O-])cc1	-7	i	1	99	/	/	/
CC1CN(C(=O)COC(=O)c2ccc(N(C)C)cc2)CC(C)O1 (configuration not stated)	1	i	1.1	88	-35	96	/
CCC(C)c1ccc(S(=O)(=O)N2CCN(C(C)CC(=O)O)CC2)cc1 (configuration not stated)	-1	i	1.1	100	/	/	/
O=S(=O)(NC1CCCCC1)c1ccc(Br)cc1	-9	i	1.1	104	0	119	-1.9
C=CCN(CC=C)C(=S)NC(=O)c1ccc(-c2ccccc2)cc1	3	i	0.82	107	-30	121	-1.5
Cc1ccc(CC(=O)Nc2ncc([N+](=O)[O-])s2)cc1	6	i	1.6	94	/	/	/
C/C(CC(=O)Nc1cc(C)ccn1)=N\NC(=O)c1ccccc1C	-6	i	1.1	107	/	/	/
O=c1[nH]c2ccccc2cc1-c1nnn(-c2ccc(F)cc2)n1	2	i	1.1	99	/	/	/
O=[n+]1c2c(n([O-])c3cc(F)c(N4CCCC4)cc31)CCC2	0	?	/	/	-11	135	-1.0
Cc1cccn2c(=O)c(/C=C(\C#N)C(=O)NC3CCS(=O)(=O)C3)c(N3CC(C)OC(C)C3)nc12 (configuration not stated)	/	i	1.1	98	/	/	/
CCOC(=O)c1ccc(NC(=S)N(CCN2CCCCCC2)Cc2ccco2)cc1	4	i	0.88	101	/	/	/
CC(C)(C)C(=O)Nc1cc(NC(=O)C(C)(C)C)cc(C(=O)Nc2cc(C(=O)O)cc(C(=O)O)c2)c1	4	i	0.94	76	26	38	-2.5
CC(=O)Nc1cccc(NC(=O)Nc2ccc(C(C)=O)cc2)c1	1	i	0.79	105	6	89	-0.4
CCOC(=O)c1c(NC(=O)Cn2cc([N+](=O)[O-])cn2)sc2c1CCC2	-11	i	1	135	-33	93	0.1
Nc1nc(-c2cccc(F)c2)cs1	1	i	0.94	108	50	113	/
CC(C)C(=O)NC(C)C(c1cccs1)N1CCN(c2ccccc2)CC1 (configuration not stated)	-3	i	1	97	-50	106	-1.4
c1ccc(Cn2ccnc2-c2ccco2)cc1	-10	/	/	94	/	/	-0.4
Cc1nnc2n(C3CCCCC3)c(=O)c3c4c(sc3n12)CCC4	1	i	0.98	92	7	104	-1.6
COC(=O)C1=C(N)Oc2cc(C)n(CC3CCCO3)c(=O)c2C1c1ccccc1OC (configuration not stated)	-1	i	1.1	99	-16	72	-0.5
COc1ccc(C2=NNC(c3cccs3)=Nc3ccc(OC)cc32)cc1	-3	i	1	101	56	121	-2.2
Cc1ccc(S(=O)(=O)N2CCC(C(=O)NCCc3ccccn3)CC2)cc1	-4	i	1	100	-13	85	/
Cc1ccc(NC(=S)N(Cc2cccs2)Cc2cc3cc(C)ccc3[nH]c2=O)cc1	-1	/	/	104	-23	126	-0.9
O=C(NCc1ccccc1)C(=O)NCC1OCCN1S(=O)(=O)c1ccc([N+](=O)[O-])cc1 (configuration not stated)	3	i	0.95	104	/	/	/
Oc1ccccc1C=NC(c1ccccc1)C(O)c1ccccc1 (configuration not stated)	-6	i	0.93	116	55	50	-1.1
CN(C)c1nc(N)nc(Cn2nnc(-c3ccc(C(F)(F)F)cc3)n2)n1	-6	i	0.88	106	/	/	/
CCOc1ccc(-n2c(Cc3cc(=O)[nH]c(=O)[nH]3)nnc2SCC(=O)NC2CCCC2)cc1	-14	i	0.97	114	/	/	-1.5
CCOC(=O)C(=CNCC(=O)OC)C(=O)OCC	12	i	0.95	99	-10	106	0.7
Cc1cc(CNC(=O)COc2ccc(C#N)cc2)c2ccccc2n1	-6	i	1	100	/	/	/
COC(=O)c1oc2ccccc2c1-n1cccc1	-2	i	1	93	-8	125	0.2

(more compounds)
SMILES	PKD1 inh	HSV replic up	HSV replic up primary fold	RGS16-Gao	Insulin prom inh	Insulin prom inh cell count	GALR2 ag
COc1ccc(N2CC(C(=O)OC(C)C(=O)c3ccccc3)CC2=O)cc1 (configuration not stated)	1	i	0.91	98	7	88	/
CC1(c2ccc(Cl)cc2Cl)OCC(Cn2ccnc2)O1 (configuration not stated)	-9	i	0.82	101	18	119	-1.4
CCCNC(=O)c1ccc(CN2CCc3ccccc3C2)cc1	3	i	1.1	21*	-39	89	-2.5
O=C(NCCNC(=O)c1cc(OCC(F)(F)F)ccc1OCC(F)(F)F)Nc1ccc(OC(F)(F)F)cc1	1	i	1	98	-34	45	-0.6
CN1CCN(C(=O)/C(=C\c2ccc3c(c2)OCO3)NC(=O)c2cccs2)CC1	-3	i	0.98	110	8	121	/
Oc1c(CN2CCc3ccccc3C2)cc(Cl)c2cccnc12	-3	i	0.58	105	/	/	-2.1
Cc1nnc(Cl)c2nn(-c3ccccc3F)c(C)c12	10	i	1.1	105	-31	138	-1.4
Cc1c(C(=O)Nc2ccc(-c3nnc4n3CCCCC4)cc2)oc2c1ccc1ccccc12	-2	i	0.72	102	-11	119	-0.5
Cc1ccc(C(C[N+](=O)[O-])n2nc(C)cc2C)cc1 (configuration not stated)	-9	i	0.88	100	18	88	-3.2
Cc1ccc(S(=O)(=O)N2CCOC2CNC(=O)C(=O)NCCc2ccc(S(N)(=O)=O)cc2)cc1 (configuration not stated)	/	i	1.1	91	/	/	/
CCn1c(-c2cccnc2Cl)nc2cc(C)c(C)cc21	6	i	1	97	/	/	/
CN(C)C=Nc1ccccc1C1C=NNC1=O (configuration not stated)	/	i	1.2	95	/	/	/
O=C(CSc1ncccn1)N1CCN(C(c2ccccc2)c2ccccc2)CC1	-3	i	0.97	105	/	/	1.9
O=C(c1cccc(F)c1)N1CCN(C(=O)c2nn3cccnc3c2Cl)CC1	-13	i	1	107	17	89	-2.2
O=C(Cc1ccccc1)n1nc(-c2ccccc2)nc1NCc1ccco1	-8	i	0.76	102	/	/	-2.5
CCS(=O)(=O)NCC(c1ccco1)N1CCN(c2ccc(F)cc2)CC1 (configuration not stated)	-2	i	0.96	115	38	135	-1.2
NC1=NC[C@H](Cc2ccc(O)cc2)N1CCc1cccc(F)c1	/	i	1.2	97	/	/	/
COc1ccccc1Cn1c(CO)nc2ccccc21	/	i	0.99	100	/	/	/
ClC(=C\c1ccccc1)/C=N/N1CCN(c2ccccn2)CC1	8	i	0.88	103	15	100	-2.1
COc1ccc(OCC(=O)N/N=C/c2ccsc2)cc1	-11	i	1.1	105	/	/	-1.1
O=C(c1cc(-c2ccco2)on1)N1CCN(C(c2ccccc2)c2ccccc2)CC1	4	i	0.88	98	/	/	-2.5
Cc1c(Cl)cccc1N=Cc1ccc([N+](=O)[O-])s1	6	i	1	103	/	/	-1.5
O=C(Nc1ccccc1Cc1ccccc1)c1oc2ccccc2c1COc1ccccc1	-4	i	1.1	76	25	79	-2.2
Nc1cc(C2CCCC2)nn1-c1ccccc1	-4	i	0.87	135	/	/	-2.7
CCOc1ccc(C(=O)N2CCN=C2SC)cc1OCC	-3	i	1.1	100	/	/	-0.1
COc1cccc(C2c3c(oc4ccccc4c3=O)C(=O)N2CCCN2CCOCC2)c1 (configuration not stated)	1	/	/	75	10	87	-0.2
